VDR inhibitor = Inhibitors of the vitamin D receptor (VDR): qHTS; Vitamin D3 receptor (Homo sapiens), P11473; VDR-SRC2-3 peptide fluorescence polarization, 2 h; Potency, µM, without a hit: max response, negative = inhibition, actives largely listed as inhibitors; 400,000 tested, 0.93% active; AID 504847, 2011; active means well fitted inhibition curve with a large enough effect; inconclusive means small, poorly fitted or top-dose-only effect, or another doubt; inactive means no such curve, though single readings can be large or run the other way; further: series mostly up to about 120 µM
Target sequence (P11473 whole entry, looked up): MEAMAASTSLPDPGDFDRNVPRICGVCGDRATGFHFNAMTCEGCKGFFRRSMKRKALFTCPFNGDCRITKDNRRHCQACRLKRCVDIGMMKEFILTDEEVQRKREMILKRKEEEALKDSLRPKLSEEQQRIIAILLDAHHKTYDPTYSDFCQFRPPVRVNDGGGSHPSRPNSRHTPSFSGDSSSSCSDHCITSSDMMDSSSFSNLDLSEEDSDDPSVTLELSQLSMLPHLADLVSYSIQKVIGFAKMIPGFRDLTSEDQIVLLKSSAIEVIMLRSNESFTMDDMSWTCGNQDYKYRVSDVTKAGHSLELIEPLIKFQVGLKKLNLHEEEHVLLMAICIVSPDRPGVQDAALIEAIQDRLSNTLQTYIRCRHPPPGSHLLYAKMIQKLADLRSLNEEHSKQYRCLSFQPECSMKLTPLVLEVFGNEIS
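Fluorescence polarization assay of small-molecule disruption of VDR binding to coregulator peptide SRC2-3. Compounds and controls pin-transferred, then read after 2 h incubation at ambient room temperature.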
* marks the source's active call; other numbers are inactive results; ? = inconclusive; & = joins results of further samples. On the % scale 0 is the no-effect control and ±100 the full control effect; potency means the concentration at half of the fitted maximal effect. Not all compounds are listed, so the mix of outcomes need not match the whole.

VDR inhibitor	SMILES
5%	Cc1cc(C(=O)NCc2cccs2)cs1
2%	CCCC(c1nnnn1C(C)(C)CC)N(Cc1ccco1)Cc1cc2ccc(OC)cc2[nH]c1=O (configuration not stated)
4%	O=C(Nc1ccc(F)cc1)C1CC(=O)n2cnnc2N1 (configuration not stated)
-4%	COCCN=C1N[C@@H](c2cccc(C(F)(F)F)c2)C(C(=O)OC)=C(C)N1Cc1ccccc1
-19%	CC1CCN(C(=O)CSc2nnc(CNC(=O)c3ccc(F)cc3)o2)CC1
-4%	CCSc1ccc(C(=O)NCC(=O)O)cc1
-21%	O=C(COC(=O)Cc1cccs1)Nc1ccc(OC(F)(F)F)cc1
-12%	CSc1oc(-c2ccco2)nc1S(=O)(=O)c1ccc(Br)cc1
8%	CC1(C)Cc2ccccc2-c2nnc(SCC(=O)N3CCN(c4ccccc4)CC3)n21
-3%	CC1CCN(c2nc3ccc(C(=O)N4CCN(Cc5ccccc5)CC4)cc3s2)CC1
-18%	COc1ccc(C(C)=O)cc1CSc1nnc2c(Cl)cc(Cl)cn12
-12%	CS(=O)(=O)c1ccc2nc(NC(=O)c3cccc(Cl)c3)sc2c1
-10%	COCCNC(=S)Nc1ccc(S(=O)(=O)Nc2cnc3ccccc3n2)cc1
4%	O=C(NCc1ccccn1)c1ccco1
20µM*	c1nc(NC2CCNCC2)c2cc(-c3ccoc3)ccc2n1
-7%	Brc1ccccc1OCCCOc1cccc2cccnc12
15%	C=CCc1ccccc1OCC(O)Cn1ccnc1C (configuration not stated)
21%	COc1ccc(/C=C/C(=O)OCCNC(=O)c2ccncc2)cc1OC
5%	Cc1noc(C)c1S(=O)(=O)N1CCC(C(=O)N(C)Cc2ccccc2)CC1
-6%	Nc1c(C(=O)Nc2ccccc2Cl)nnn1Cc1cccc(Cl)c1
-10%	CCC1=C2CC[C@H]3C(=O)N(CC)C(=O)[C@H]3[C@H]2[C@@]2(Cc3ccccc3)C(=O)N(Cc3ccccc3)C(=O)N2C1=O
1%	Cc1ccc(S(=O)(=O)N2CCC(C(=O)OCc3ccc([N+](=O)[O-])cc3)CC2)cc1
-1%	CCCSc1nsc(NC(=O)CCC)n1
6%	COc1cccc(S(=O)(=O)NCC(=O)N2CCCC2)c1
3%	O=C(NCC(c1cccs1)S(=O)(=O)c1cccs1)c1ccc(F)c(F)c1 (configuration not stated)
-14%	CCc1ccc(OCC(O)CN2CCN(CCO)CC2)cc1 (configuration not stated)
-3%	NS(=O)(=O)c1cccc(NC(=O)c2ccc3nc[nH]c3c2)c1
-7%	CCCN1CCN(c2nnc(-n3cccc3C(=O)Nc3ccccc3C(F)(F)F)s2)CC1
-14%	COc1ccc(NCc2nnc(SCC(=O)Nc3ccccc3)n2C)cc1
-17%	Cn1c(=O)c(=O)n(C)c2cc(S(=O)(=O)CCC(=O)NCc3ccccc3)ccc21
-1%	CCOC(=O)c1cc(NC(=O)N(C(C)C)C(C)C)c(C)nc1C
0%	COc1ccc(/C=C2\NC(=O)C(C=NCc3ccccc3)=C2O)cc1
-9%	COc1ccc(C)cc1NC(=O)CCc1ccc(S(=O)(=O)N2CCOCC2)cc1
-2%	O=C(O)CCCNCc1ccccc1F
-8%	Cc1cccc2c1-c1sc(C(=O)Nc3ccc(F)cc3F)cc1CO2
15%	Cc1nn(-c2ccc(F)cc2)c(-n2cccc2)c1C(=O)N1CCN(c2ccccc2)CC1
-1%	COc1ccc2nc(N(Cc3ccccc3)C(=O)CCNC(C)=O)sc2c1
-8%	O=C(C1COc2ccccc2O1)N1CCN(c2nc3c(F)cc(F)cc3s2)CC1 (configuration not stated)
-7%	CCC(=O)N1CCc2cc(Br)cc(S(=O)(=O)N3CCCC(C(=O)Nc4ccc(OC)cc4OC)C3)c21 (configuration not stated)
13%	COc1ccc(NS(=O)(=O)c2ccc(C(=O)N3CCN(c4ccc(F)cc4)CC3)cc2)cc1
1%	Cc1cccc(-c2nc(CSCC(=O)N3CCN(Cc4ccc5c(c4)OCO5)CC3)c(C)o2)c1
-25%	CCOC(=O)C1CCCN(S(=O)(=O)c2ccccc2)C1 (configuration not stated)
3%	CCOc1ccc(C(=O)Nc2ccc(-c3cc4ccccc4oc3=O)cc2)cc1Br
-13%	C[C@]12C[C@H](O)[C@@H]3c4ccc(O)cc4CCC3[C@@H]1CCC2=O (some centres not stated)
-18%	COc1ccc(S(=O)(=O)N2CCC(C(=O)NCCN3CCOCC3)CC2)cc1OC
3%	COc1cc(-c2cc(N3C(=O)Nc4ccccc4N3O)n[nH]2)cc(OC)c1OC
-19%	CN(Cc1ccco1)Cc1ccc(O)c2ncccc12
-2%&-6%	CC[N+](C)(C)Cc1ccccc1Br
1%&17%	CN(C)CCN(Cc1ccccc1)c1ccccn1
5%	CN(CC(=O)NCc1cccc(F)c1)C(=O)c1ccco1
-7%	CC(C)CC1NC(=O)N(CC(=O)Nc2ccc(OCc3ccccc3)cc2)C1=O (configuration not stated)
19%	COC(=O)Nc1ccc(S(=O)(=O)NNC(=O)c2c(O)c3ccccc3[nH]c2=O)cc1
-6%	COCCSc1nnc(NS(=O)(=O)Cc2ccccc2)s1
17%	Cc1cccc(N(CC(=O)NCc2ccco2)C(=O)CCC(=O)Nc2nccs2)c1
-8%	O=C(OC[C@@H]1CCCN2CCCC[C@H]12)c1cc2ccccc2oc1=O
0%	Cc1cc(=O)[nH]c(N/N=C/C=C/c2ccccc2)n1

Continuation:
VDR inhibitor	SMILES
?	CCOC(=O)C1CCCN(C(=O)c2ccc(-c3ccc([N+](=O)[O-])cc3)o2)C1 (configuration not stated)
12%	COC(=O)CN(n1cnnc1)S(=O)(=O)c1ccccc1Cl
-3%	Oc1c(Br)cc2oc3c(c2c1CNCc1ccccc1)CCCC3
0%	O=C(NCCc1ccco1)c1ccc(OCc2cn3ccccc3n2)cc1
0%	CN=C(Nc1ccc(Cl)cc1)c1ccc(C(F)(F)F)cc1
-15%	CCC1CCCCN1CCCNC(=O)CS(=O)(=O)Cc1nc(-c2cccc(OC)c2)oc1C (configuration not stated)
8%	CC(C)C(NC(=O)c1ccco1)C(=O)OCc1cc([N+](=O)[O-])cc2c1OCOC2 (configuration not stated)
7%	Cc1ccc(-c2onc3ccc(C(=O)/C=C/N(C)C)cc23)cc1
-3%	COc1ccc2[nH]c(C(=O)Nc3ccc4c(c3)OCO4)cc2c1
14%	COC(=O)Cn1cnc2ccccc2c1=O
8%	Cc1ccc(N2CC(C(=O)NCc3ccccn3)CC2=O)cc1 (configuration not stated)
-6%&8%	O=C1c2cccc(O)c2C(=O)c2c(O)cc(CO)cc21
6%	CCOc1ccccc1NC(=O)c1ccc2nccnc2c1
-16%	O=c1[nH]c2cccc(Cl)c2n(CCNc2ncc(C(F)(F)F)cc2Cl)c1=O
4%	CN(C)S(=O)(=O)c1ccccc1N=C=S
7%	COc1ccc(-c2nc(C(N)=O)c3[nH]c(=O)n(-c4ccccc4OC)c3n2)c(OC)c1
-8%	Cc1ccc2c(c1)N(CCC(=O)NC(C)C)C(=O)CO2
-11%	Cc1cc(C(=O)O)c2c(=O)n(C)c(=O)n(C)c2n1
-6%	COc1ccc(N(CC(=O)Nc2cccc(N(C)S(C)(=O)=O)c2)S(=O)(=O)c2ccccc2)cc1Cl
-6%	Cc1nc2ccccc2n1CCOc1ccc([N+](=O)[O-])cc1
-16%	Cc1cccc(N2CCN(C(=S)Nc3ccc4nc(N5CCN(C)CC5)cc(C)c4c3)CC2C)c1 (configuration not stated)
-4%	COc1ccc(NC2CS(=O)(=O)CC2NCc2ccco2)cc1 (configuration not stated)
-2%	O=C(CCN1C(=O)c2ccc([N+](=O)[O-])cc2C1=O)Nc1cccc(O)c1
9%	CCOc1ccc2nc(NC(=O)c3nc(SC)ncc3Cl)sc2c1
7%	COc1cc(OC)c(C(=O)OCC(=O)c2ccc3c(c2)NC(=O)CO3)cc1OC
-14%	Cc1ccc(S/C=C\C(=O)c2ccccc2)cc1
-5%	O=C(COc1nc2ccccc2nc1N1CCOCC1)N1CCc2ccccc21
-21%&-8%	Cc1ccc2c(c1)CC1(CN2C)C(=O)OC(C)(C)OC1=O
2%	Cc1cc(C)n2nc(SC(C)C(=O)Nc3ccccc3F)nc2n1 (configuration not stated)
-27%	COc1ccc(OCC(=O)NNC(=O)C(=O)N2CCCC2)cc1
-1%	COc1ccc(-c2cc(C(=O)Nc3cc(C)ccc3O)no2)cc1OC
-18%	CC(=O)N1CCN(S(=O)(=O)c2c(F)cc(F)c(Cl)c2F)CC1
-6%	CCOC(=O)CNC(=O)c1cn(CC)c(=O)c2cc(OC)c(OC)cc12
-9%	O=C(NCCc1cccc(Cl)c1)c1cc2ccccc2oc1=O
2%	c1csc(C2Nc3ccccc3-c3nc4ccccc4n32)c1 (configuration not stated)
-25%	COc1cccc(-c2nc(-c3ccccc3)c(-c3ccccc3)[nH]2)c1OCC(=O)O
-8%	CC(C)C1OC2c3cccc4cccc(c34)C2N1c1ccccc1 (configuration not stated)
-5%	Cc1cccc2cc(CN(Cc3ccco3)C(=O)c3cccs3)c(=O)[nH]c12
-18%	COc1ccc(S(=O)(=O)N2CCCC(C(=O)N3CCCC3)C2)cc1OC (configuration not stated)
-11%	CN(C)c1ccc(/C=C(/C#N)C(=O)NCc2ccccc2)o1
-8%	NC(=O)c1ccc(C(F)(F)F)n(Cc2ccc(Cl)cc2)c1=O
-11%	O=C(COC(=O)c1ccccc1F)NNC(=O)c1ccccc1
28µM*	CCCCCCCC/C=C/CCCCCCCC(=O)NCCOP(=O)(O)O
-7%	Cc1cc(=O)[nH]c(SCC(=O)N2CCN(S(=O)(=O)c3ccccc3)C2)n1
8.9µM*	O=[N+]([O-])c1ccc(Sc2cccc[n+]2[O-])c2nonc12
50µM*	COc1ccc(/C=C2/C(=O)N(c3ccccc3)N=C2C)cc1Br
-21%	Cc1cccc(C(=O)N2CCN(S(=O)(=O)N3CCCCCC3)CC2)c1
-4%	O=C(CN1CCN(S(=O)(=O)/C=C/c2ccccc2)CC1)NCC(F)(F)F
2%	O=C(CCC(=O)OCC(=O)c1ccccc1)NC1CCCCC1
-6%	COc1ccccc1Nc1nc(N)nc(CSC(=S)N2CCC(C)CC2)n1
-4%	Cc1ccc(-c2nc(-c3ccccc3)no2)c(Cl)c1
5%	COc1ccc(Br)cc1/C=N/NC(=O)CNC(=O)/C=C/c1ccccc1
4%	N#CC1=C(N)Oc2c(oc(CO)cc2=O)C1c1cccs1 (configuration not stated)
-6%	CCN(CC)CCN1C(=O)C2C(C(=O)Nc3ccc(C(C)C)cc3)C3C=CC2(O3)C1C(=O)NC1CCCCC1 (configuration not stated)
1%	Cc1cccc(NCc2nc(SCC(=O)Nc3ccccc3Br)n[nH]2)c1
-1%	O=C1C=C(c2ccoc2)N2CCC[C@H]2C1

Next section:
VDR inhibitor	SMILES
1%	COc1ccccc1NC(=O)c1ccc2nsnc2c1
-3%	CC1Sc2ccc(S(=O)(=O)CCC(=O)Nc3ccc(C(C)C)cc3)cc2NC1=O (configuration not stated)
-13%	O=C(c1ccc(F)cc1)N1CCN(c2ccc([N+](=O)[O-])cc2-n2cccc2)CC1
-12%	CCSc1nc(-c2ccccc2)nc(C(Cl)Cl)n1
9%	Cc1nc2c(C(=O)N3CCN(C)CC3)cnn2c(C)c1Cc1ccc(Cl)cc1
-6%	COc1cc(OC)cc(C(=O)Nc2ccn(C)n2)c1
-19%	Cc1nnc(N/N=C/c2ccc([N+](=O)[O-])cc2)n1N
-14%	O=C(c1ccncc1)N1CCC2(CCCN(c3ccccc3)C2)CC1
-16%	O=C(/C=C\c1ccccc1)NCC(=O)N/N=C/c1ccc(O)cc1O
-11%	COc1ccc(NC(=O)c2c(NCc3cccs3)sc3c2CCC(C)C3)c(OC)c1 (configuration not stated)
-4%	CCc1ccc(N2C(=O)C3ON(c4ccccc4)C(c4ccco4)C3C2=O)cc1 (configuration not stated)
-12%	OC(c1ccc2c(c1)OCO2)c1nccc2ccccc12 (configuration not stated)

Source: PubChem (National Center for Advancing Translational Sciences (NCATS))
